Screening results deposited in PubChem by several laboratories.
CSC inhib: cancer stem cell inhibition. cancer stem cell-like cells viability, luminescence. inhibition, % at 7.5 µM. 1.1% of 300,000 active. AID 2717;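 active means mean at 75% or more and at least half the replicates too; inconclusive means mean and replicates disagree; tested in HMLE shEcad cells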;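 further: 0% = median of negative and 100% = median of positive control wells; the first replicate is given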
MT1-MMP act inh: inhibitors of human MT1-MMP activation. HT1080 RFP-PRO-GFP cells, GFP/RFP ratio fluorescence, overnight; percent of plate control window, DMSO zero. 0.061% of 360,000 active. GFP/RFP ratio change, % at 20 µM. P50281;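 active means GFP/RFP ratio change of at least 30% with cell ATP level not reduced by more than half and red fluorescence within 50% of control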; further: strong numbers were not always called active
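system = RFP-PRO-GFP reporter HT1080 cells | dosing = 20 µM single dose, 1% DMSO | timing = overnight cell settling, then overnight compound exposure, 37 °C, 5% CO2 | read-out basis = GFP/RFP fluorescence ratio | controls = DMSO and RFP-L50D-GFP cell wells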
HIV Env fusion: blocks HIV Env-driven cell-cell fusion; HeLa-JRFL Env/CEM21 cell fusion, luciferase; inhibition, % at 12.3 µM; 1.1% of 360,000 active;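 active means mean replicate inhibition score of at least 50 and every replicate individually at or above 50; inconclusive means only one of the two criteria met; inactive means mean below 50 and not all replicates reaching 50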;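 further: 0% = plate neutral controls and 100% = maraviroc near 300 nM; one replicate is shown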
Rce1 inhib: blocks yeast Ras-converting enzyme; Q03530; yeast membranes, quenched prenylated peptide cleavage fluorescence; calls only; 0.27% of 290,000 active;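 active means fall in fluorescence gain of 50% or more versus controls, with final raw signal at or below 3038400; inconclusive means same 50% fall but final raw signal above 3038400; inactive means fall in fluorescence gain under 50%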;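 further: plate controls were neutral control wells for no effect and wells lacking membranes for full effect; tested at 10 µM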
Target sequence (Q03530 whole entry, looked up): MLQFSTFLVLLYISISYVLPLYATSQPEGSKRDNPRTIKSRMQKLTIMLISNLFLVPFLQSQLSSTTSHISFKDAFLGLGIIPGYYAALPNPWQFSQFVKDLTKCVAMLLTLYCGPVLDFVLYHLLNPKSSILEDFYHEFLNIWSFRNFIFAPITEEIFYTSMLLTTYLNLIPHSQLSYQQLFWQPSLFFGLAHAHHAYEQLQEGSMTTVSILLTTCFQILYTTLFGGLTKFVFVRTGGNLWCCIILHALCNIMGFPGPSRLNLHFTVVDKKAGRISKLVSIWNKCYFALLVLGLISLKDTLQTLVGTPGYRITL
eIF4H inh: inhibitors of RNA binding by human eIF4H | Q15056 | eIF4H fluorescence polarization binding assay | inhibition, % at 35 µM | 0.94% of 290,000 active | AID 2012;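 active means 50% or more with normal probe brightness, or confirmed in later tests; inconclusive means above 50% with abnormal brightness, or retests that disagree; inactive means below 50% or failed in later tests; about a fifth of its hits are not listed in these tables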;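 further: calls also rest on retests at 20 µM and on dose response follow-up; 0% = protein and probe with vehicle and 100% = probe without protein; strong numbers were not always called active; many hits fall short of the cut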
UUG fidelity: modulators of start codon recognition fidelity in yeast; S. cerevisiae UUG-firefly luciferase reporter, luminescence/redox ratio; activity score, % at 18.7 µM; 0.13% of 350,000 active;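 active means replicate mean at a twofold rise or more, about +100% in these data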;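 further: firefly luciferase made from a UUG start codon reports start codon fidelity; reporter light over untreated wells divided by growth signal over untreated wells; some hits fall short of that in this replicate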
PABP FP inh: blocks human PABP binding to poly(A) RNA. 1% of 290,000 active. inhibition, % at 35 µM. P11940. AID 2014. fluorescence polarization;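 active means 50% or more with normal probe brightness, or confirmed in later tests; inconclusive means above 50% with abnormal brightness, or retests that disagree; inactive means below 50% or failed in later tests; about a fifth of its hits are not listed in these tables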;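 further: calls also rest on retests at 20 µM and on dose response follow-up; controls were probe without protein and protein plus probe with vehicle; some compounds called inactive have numbers as strong as hits; many hits fall short of the cut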
MT1-MMP act inh RFP: also measured in MT1-MMP act inh; calls as there; RFP signal change, %; measured here: RFP expression control read;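 0 = vehicle wells; hits needed this value within 50% of zero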
Numbers without * were called inactive; i = inactive; ? = inconclusive; . = no result given.

SMILES	CSC inhib	MT1-MMP act inh	MT1-MMP act inh RFP	HIV Env fusion	Rce1 inhib	eIF4H inh	UUG fidelity	PABP FP inh
COc1ccc(CCNC(=O)Cc2ccc(NC3=NC4CS(=O)(=O)CC4S3)cc2)c(OC)c1 (stereo unspecified)	.	-2	1	0	i	-2	-6	-5
CCC(=O)c1ccc(OCC(=O)NNC(=O)c2cc(C)oc2C)cc1	.	3	1	21	.	.	-16	.
C=C1CCC[C@]2(C)C[C@H]3OC(=O)C(CN[C@@H](C)c4ccccc4)[C@H]3CC12 (stereo partly specified)	3	-5	-5	37	i	-2	-13	0
COCO/C=C(\NC(C)=O)c1ccccc1	-17	0	2	20	.	.	-5	.
O=C(N/N=C/c1cc2c(cc1Br)OCO2)c1c[nH]c2ccccc12	-3	10	-5	-34	.	8	.	2
CCCN(CCC)CC(O)CN1C(=O)NC(C)(C)C1=O (stereo unspecified)	-5	-1	0	5	i	-11	.	-9
CC(=O)NCCNC(=O)C1(C)Cc2c(-c3ccc(C(N)=O)cc3)ccnc2O1 (stereo unspecified)	.	5	6	-7	.	.	-9	.
COc1ccc(N2CCN(C(=O)COCc3cc(-c4ccc5c(c4)OCO5)on3)CC2)cc1	3	-1	2	2	i	-4	-11	0
COC(=O)CNC(=O)c1ccc2c(c1)S(=O)(=O)c1ccccc1C2=O	5	1	5	.	i	5	6	9
CCOC(=O)c1c2n(c3ccc(O)cc13)CCC2	-15	6	2	.	i	-3	-10	-1
COc1ccc(O)c(/C=N/n2c(-c3ccco3)csc2=Nc2cccnc2)c1	-1	4	-3	24	i	-6	.	2
CCn1c2ccccc2c2cc(NC(=O)COC(=O)c3cccc(S(=O)(=O)NC)c3)ccc21	21	1	-2	-13	i	-1	-21	12
Cc1cccc(NC(=O)CSc2nnc(-c3cc(C)n(-c4ccccc4)c3C)o2)c1C	45	-4	-2	12	i	-1	-38	6
N#CCSc1nc(-c2ccccc2)nc2ccc(F)cc12	-5	8	-12	-12	i	-4	2	0
CCc1ccc(-c2cc(C(=O)N/N=C/c3c[nH]c4ccccc34)[nH]n2)cc1	?	-8	-16	-247	i	-4	-14	39
CC(C)(C)Nc1nc(NC(C)(C)C)nc(-n2ccnc2)n1	-21	-1	0	16	.	-12	-25	10
Cc1ccc(S(=O)(=O)N2[C@@H](c3ccc(F)cc3)C(C(=O)O)=C[C@H]2CC2CCCC2)cc1	.	4	-2	-9	.	.	-8	.
N#C/C(=C(/O)CN1CCCC1)c1nc(-c2ccccc2)cs1	0	-2	3	-39	i	-3	-21	-1
Cc1nnc(-c2cnn(C)c2N)n1Cc1ccc(Cl)cc1	4	8	2	.	i	-3	-9	4
COC(=O)CCC(=O)OC1(C)C(=O)C2=CN(CCCOC(C)C)C(c3ccc(OC)cc3)=CC2=C(Br)C1=O (stereo unspecified)	14	17	15	.	i	?	0	?
COc1ccc(C2C(=O)c3ccccc3C2=Nc2ccc(Br)cc2)cc1 (stereo unspecified)	-2	0	-4	-29	i	.	-20	.
Cc1ccc(NC(=O)CN(C)C(=O)Cn2cc(C(F)(F)F)cc(Cl)c2=O)cc1	-5	7	2	-35	i	-8	.	8
CCCCn1c(N)c(N(CC(C)C)C(=O)c2oc3ccc(OCC)cc3c2C)c(=O)[nH]c1=O	1	-5	0	-26	i	-9	-6	15
COc1ccc(OC)c(NC(=O)CC2(CC(=O)O)CCCC2)c1	-1	-1	1	-5	i	0	-14	6
O=C(C(=O)N1CCCCC1)c1cn(CC(=O)N2CCCCCC2)c2ccccc12	-15	-2	3	4	i	12	-7	12
CCN(CCO)C(=O)CC1C(=O)NCCN1Cc1c(F)cccc1Cl (stereo unspecified)	-17	-3	-1	1	i	-4	-14	-10
C=CCNC(=O)c1c(Cl)cccc1Cl	-5	-3	1	.	i	9	0	3
Cc1cc(OCC(=O)NC2CC(C)(C)NC(C)(C)C2)c2c(C)cc(=O)oc2c1	-3	-1	1	-1	i	.	-16	.
COc1c(C)cc(C(=O)C2CCCN(C(=O)c3csc(C)n3)C2)cc1C (stereo unspecified)	-7	1	3	-1	i	-1	-1	2
COC(=O)CC1C(=O)NCCN1C(=O)c1ccc2oc(C(C)C)nc2c1 (stereo unspecified)	21	0	2	1	i	-20	16	-1
Cn1c(CC(=O)Nc2cccc(Cl)c2Cl)nnc1SCC(=O)NC1=NCCS1	-1	1	3	2	i	-6	-13	-9
CC1CCC(NC(=O)Cn2c3c(c(-c4ccccc4Cl)cc2=O)CCC3)CC1 (stereo unspecified)	-13	-6	-13	13	i	3	9	-2
CCc1nc2c(OCCOc3ccccc3)cccn2c1N(C)C(=O)c1ccc(OC)cc1	.	-5	-3	2	.	.	-10	.
CCOC(=O)CC(Nc1nc(N2CCOCC2)nc(N2CCOCC2)n1)c1ccccc1Cl (stereo unspecified)	-9	1	-1	.	i	-2	1	-6
CCCOc1ccc(/C=C/C(=O)NC2CCCCC2)cc1OC	-3	0	-4	-3	i	-7	-1	5
CC(C)COc1ccc(C(=O)Nc2ccc([N+](=O)[O-])cc2)cc1	12	3	-12	.	i	-2	.	3

Nothing new here: twelve of the compounds above.
SMILES	CSC inhib	MT1-MMP act inh	MT1-MMP act inh RFP	HIV Env fusion	Rce1 inhib	eIF4H inh	UUG fidelity	PABP FP inh
O=C(C(=O)N1CCCCC1)c1cn(CC(=O)N2CCCCCC2)c2ccccc12	-15	-2	3	4	i	12	-7	12
CCN(CCO)C(=O)CC1C(=O)NCCN1Cc1c(F)cccc1Cl (stereo unspecified)	-17	-3	-1	1	i	-4	-14	-10
C=CCNC(=O)c1c(Cl)cccc1Cl	-5	-3	1	.	i	9	0	3
Cc1cc(OCC(=O)NC2CC(C)(C)NC(C)(C)C2)c2c(C)cc(=O)oc2c1	-3	-1	1	-1	i	.	-16	.
COc1c(C)cc(C(=O)C2CCCN(C(=O)c3csc(C)n3)C2)cc1C (stereo unspecified)	-7	1	3	-1	i	-1	-1	2
COC(=O)CC1C(=O)NCCN1C(=O)c1ccc2oc(C(C)C)nc2c1 (stereo unspecified)	21	0	2	1	i	-20	16	-1
Cn1c(CC(=O)Nc2cccc(Cl)c2Cl)nnc1SCC(=O)NC1=NCCS1	-1	1	3	2	i	-6	-13	-9
CC1CCC(NC(=O)Cn2c3c(c(-c4ccccc4Cl)cc2=O)CCC3)CC1 (stereo unspecified)	-13	-6	-13	13	i	3	9	-2
CCc1nc2c(OCCOc3ccccc3)cccn2c1N(C)C(=O)c1ccc(OC)cc1	.	-5	-3	2	.	.	-10	.
CCOC(=O)CC(Nc1nc(N2CCOCC2)nc(N2CCOCC2)n1)c1ccccc1Cl (stereo unspecified)	-9	1	-1	.	i	-2	1	-6
CCCOc1ccc(/C=C/C(=O)NC2CCCCC2)cc1OC	-3	0	-4	-3	i	-7	-1	5
CC(C)COc1ccc(C(=O)Nc2ccc([N+](=O)[O-])cc2)cc1	12	3	-12	.	i	-2	.	3

Further structures
SMILES	CSC inhib	MT1-MMP act inh	MT1-MMP act inh RFP	HIV Env fusion	Rce1 inhib	eIF4H inh	UUG fidelity	PABP FP inh
Cc1cc(C)cc(C(=O)N(c2ccccn2)C(C)c2ccco2)c1 (stereo unspecified)	-3	5	7	-5	i	-5	-13	-9
O=C(Nc1cccc2ncccc12)c1ccc(OCc2ccccc2)cc1	-1	3	-18	18	i	2	.	-12
CC1CN(CC(=O)Nc2nc3ccccc3s2)CC(C)O1 (stereo unspecified)	-7	-5	-1	-5	i	1	-13	-2
CC(CCc1ccco1)NC(=O)Nc1cccc(F)c1 (stereo unspecified)	-15	-1	-1	-40	i	-3	-14	-6
O=C(O)c1cn(Cc2ccccc2Cl)c2ccc(S(=O)(=O)N3CCOCC3)cc2c1=O	3	-1	2	-12	i	2	.	-8
COC(=O)COc1ccc(Cl)cc1C1Nc2ccccc2C(=O)N1c1ccc(OC)cc1 (stereo unspecified)	12	1	-1	.	i	-8	-7	-14
CCN(CC)S(=O)(=O)c1ccc(C(=O)NC(=S)N(CCO)Cc2ccccc2)cc1	21	5	-2	-3	i	-8	-30	17
CC(=O)c1cccc2c1OC(C)C(=O)N2Cc1ccc(Cl)cc1 (stereo unspecified)	.	-1	-1	5	.	.	-7	.
CCc1ccccc1NC(=O)c1ccc(Cn2cc([N+](=O)[O-])cn2)cc1	7	-4	-3	.	i	-5	5	-13
CCCCNc1nc2c(c(=O)n(C)c(=O)n2C)n1CCC	-10	5	-5	4	i	-16	-15	4
COc1ccc(C(=O)N2CCOC2CNC(=O)C(=O)NCc2ccc3c(c2)OCO3)cc1 (stereo unspecified)	7	1	-1	-8	i	3	.	1
NNc1nc2ccc(F)cc2s1	11	-3	-1	.	i	1	.	-6
CSc1ccccc1NC(=O)CN(C)C(=O)C1CCN(C(=O)Nc2ccccc2)CC1	7	-1	3	6	i	.	-6	.
Cc1ccc(NC(=O)CN(C)C(=O)c2cccc(S(=O)(=O)N3CCc4ccccc4C3)c2)cc1	.	1	1	-3	.	.	7	.
Cc1cccc(C(=O)NC2CCN(C(=S)NCc3ccco3)CC2)c1	11	3	2	.	i	-1	-29	-6
Cc1nn(CC#N)c(=O)n1-c1ccccc1	17	-4	0	-113	i	-3	-22	5
CCOC(=O)c1c(N)sc2c1CCCC2	-19	-2	1	-10	i	6	-10	12
O=C(Nc1ccc(N2CCOCC2)cc1)c1cc(-c2ccncc2)nc2ccccc12	-7	1	-2	8	i	-3	-17	5
CCc1nc2nc(C)c(NS(=O)(=O)c3ccc(C4CCCCC4)cc3)c(=O)n2[nH]1	.	2	4	15	i	-3	7	8
CCCC(=Nc1ccccc1)C1=C(O)C(C(=O)OC)C(C)(C)CC1=O (stereo unspecified)	-13	0	1	.	i	-8	-28	17
Oc1ccc(/C=N/NC(=S)Nc2cccnc2)cc1	-7	2	3	-70	i	-5	.	1
COC(=O)c1ccccc1NC(=O)NCCc1ccccc1OC	0	1	1	-1	i	-5	.	2
CC(=O)N1Cc2ccccc2CC1C(=O)N1CCN(c2ccccc2)CC1 (stereo unspecified)	25	7	1	13	i	-5	5	-6
CN1CCN(CC#CCn2c3ccccc3c3ccccc32)CC1	-8	-6	2	.	i	2	4	-4
Cc1cc(C)c2[nH]c(=O)c(CN(Cc3cccs3)C(=S)NCc3ccco3)cc2c1	88*	-8	-8	12	i	5	.	-5
O=C(NCc1ccco1)[C@@H]1CCCN1C(=O)c1cccs1	2	-11	-3	-18	i	0	-9	-11
Cc1cc(-c2nn(C)c(=O)c3ccccc23)cc(C)c1O	6	2	-3	12	i	-6	-15	-2
C=CCn1c(SCC(=O)NC2CCCCC2)nnc1C1CCCCC1	-5	2	0	.	i	9	-3	8
CN1CCN(C(=O)CNC(=O)C23CC4CC(CC(C4)C2)C3)CC1	-10	-1	6	-1	.	.	-24	.
NC(=S)N/N=C/c1ccc2c(c1)OCCO2	-3	1	5	-14	i	1	.	2
COc1ccc(OC)c(NC(=O)CSc2nnnn2C)c1	.	0	5	0	i	-6	.	6
COc1ccc(C(NC(=O)c2ccco2)c2ccc(OC)c(OC)c2)cc1 (stereo unspecified)	-4	0	-2	.	i	0	-1	-3
